miR-21 reporter: miR-21 reporter, rising signal. HeLa miR-21 FLuc reporter, luciferase, 48 h. Potency, µM (series often up to 38.3 µM), inactives show top-dose reporter change, positive = more light. 340,000 tested, under 10 active. AID 2288; active = well fitted rising curve with a large enough effect; inconclusive = small, poorly fitted or top-dose-only effect; inactive = no such curve, though single readings can be large or run the other way;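 also: % of control where 0% means no effect; miR-21 action dims this reporter so a rising signal means less miR-21 action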
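HeLa cells endogenously expressing miR-21, stably carrying CMV-driven firefly luciferase with a downstream miR-21 binding site, 2000 cells/well. Titrations up to approximately 40 uM, 48 hours; luciferase luminescence read.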
Rango-impB inh: Rango-importin beta binding inhibition. Q14974. Potency, µM (titrated, usually from 92.2 µM), for the others: at the top dose inhibition of complex formation. 340,000 compounds, 0.031% hits. Rango CFP/YFP FRET sensor + importin beta, 45 min. AID 540263; active = rising FRET ratio curve, often small or poorly fitted; inconclusive = mostly compound fluorescence or quenching in the first reads; inactive = flat curves in all reads;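 also: potency is read from the fitted curve at half-maximal effect; 0% = DMSO wells and 100% = buffer wells lacking importin beta; nearly all actives have a fitted effect of over 15% in size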
Target sequence (Q14974 whole entry, looked up): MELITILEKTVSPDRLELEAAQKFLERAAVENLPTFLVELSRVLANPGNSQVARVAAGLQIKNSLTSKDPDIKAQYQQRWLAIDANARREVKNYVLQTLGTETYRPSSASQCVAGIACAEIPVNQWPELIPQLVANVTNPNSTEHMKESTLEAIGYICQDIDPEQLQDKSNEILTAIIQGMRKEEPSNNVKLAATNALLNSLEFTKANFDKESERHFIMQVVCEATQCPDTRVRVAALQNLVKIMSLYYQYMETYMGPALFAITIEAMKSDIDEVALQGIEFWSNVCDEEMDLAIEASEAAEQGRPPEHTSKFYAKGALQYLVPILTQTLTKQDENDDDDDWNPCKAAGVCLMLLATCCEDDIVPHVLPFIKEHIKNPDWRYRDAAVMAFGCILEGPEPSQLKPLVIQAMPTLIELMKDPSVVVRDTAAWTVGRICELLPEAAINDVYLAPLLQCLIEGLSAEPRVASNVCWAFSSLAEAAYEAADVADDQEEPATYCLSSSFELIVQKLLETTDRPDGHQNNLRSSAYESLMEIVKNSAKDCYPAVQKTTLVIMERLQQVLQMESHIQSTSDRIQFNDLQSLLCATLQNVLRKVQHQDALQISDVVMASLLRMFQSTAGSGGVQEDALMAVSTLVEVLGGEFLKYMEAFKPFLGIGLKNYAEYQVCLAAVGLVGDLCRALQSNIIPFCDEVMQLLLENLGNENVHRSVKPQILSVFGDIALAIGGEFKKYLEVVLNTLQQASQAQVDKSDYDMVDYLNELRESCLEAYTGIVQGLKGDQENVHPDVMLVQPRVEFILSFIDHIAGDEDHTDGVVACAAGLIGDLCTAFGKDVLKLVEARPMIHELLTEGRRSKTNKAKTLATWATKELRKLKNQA
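FRET biosensor Rango (snurportin 1 IBB between N-terminal EYFP and C-terminal Cerulean), 50 nM in PBS/1 mM DTT/0.02% Tween-20/0.1% BSA, preincubated 5 min RT with compound; 0.125 microM importin beta added, 45 min RT, CFP/YFP FRET ratio read.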
Rango dissoc inh: inhibition of RanGTP-driven Rango-importin beta dissociation; Biochemical FRET Rango-importin beta, RanGTP-induced dissociation; Potency, µM (highest dose often 46.1 µM), inactives show top-dose activity change, negative = inhibition; 340,000 compounds, 0.071% hits; active means falling FRET ratio curve, often poorly fitted, with flat reads before Ran was added; inconclusive means other falling curves, or compound fluorescence or quenching; inactive means flat or rising ratio curve;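 also: potency is read from the fitted curve at half-maximal effect; % of control where 0% means no effect; nearly all actives have a fitted effect of over 45% in size; -100% = wells without RanGTP and RCC1; the record marks most hits as doubtful in a second field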
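Recombinant Rango FRET biosensor (EYFP–snurportin 1 IBB–cerulean CFP10) at 0.1 uM premixed with 0.25 uM importin beta in PBS, 1 mM DTT, 0.02% Tween-20, 0.1% BSA. Compound added 5 min; RanGTP-RCC1 (0.6 uM Ran, 2 mM GTP, 0.2 uM RCC1) then triggers release, read at 45 min.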
GLA inh pH 4.5: alpha-galactosidase A (human) inhibition, pH 4.5. purified enzyme, 4-MU-alpha-Gal fluorescence, pH 4.5. activity change, negative = inhibition, % at 105 µM. 230,000 tested, under 10 active; inconclusive = small, poorly fitted or top-dose-only inhibition, or a rising curve; inactive = flat fitted curve, though single readings scatter; no compound was filed as active;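 also: 0% = full activity with enzyme and -100% = basal without enzyme; dose as in the result columns while the protocol names 77 µM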
An asterisk follows results filed as active; u = inconclusive; x = not tested or not shown; & = joins results of further samples. An excerpt; the hit share may differ from the screen's.

cpd	structure	miR-21 reporter	Rango-impB inh	Rango dissoc inh	GLA inh pH 4.5
1	Cc1c(-c2cccc(NC(=O)c3ccco3)c2)nc2ncccn12	-7%	-1.8%	-4%	u
2	O=C(NC(=S)Nc1ccccc1Cl)c1ccco1	-53%	4.7%	5%	x
3	Cn1nnnc1SCC(=O)NC(=O)NCc1ccccc1	-4%	-2.3%	9%	-4
4	O=C(NCc1ccco1)c1noc2c1CCCCC2	-39%	-0.2%	1%	0
5	CCOC(=O)N1CCC(NC(=O)c2csc3c2CCCC3)CC1	0%	8.7%	1%	1
6	CN(CCC#N)C(=O)COC(=O)c1cccnc1Nc1ccccc1F	-1%	-1.5%	7%	6
7	CCOc1ccc(NC(=O)C2C3C=CC4(O3)C2C(=O)N(Cc2cccnc2)C4C(=O)NC2CCCCC2)cc1 (stereo not drawn)	8%	2.7%	1%	x
8	CN(C)/C=C/C(=O)c1ccc(Cl)cc1Cl	1%	u	2%	5
9	O=C(c1ccc(Br)s1)N1CCc2ccccc2C1	-59%	-1.9%	10%	x
10	O=C(O)CCc1ccc(-c2ccccc2)n1-c1ccc(C(=O)O)cc1	-1%&-1%	3.3%	-4%	x
11	CC1(C(=O)OCC(=O)Nc2ccc(S(=O)(=O)N3CCOCC3)cc2)CC1(Cl)Cl (stereo not drawn)	x	-0.6%	22%	x
12	CC(C)(C)c1ccc(Oc2ccc(N)cn2)cc1	29%	-4.2%	19%	5
13	CC1=C(C(=O)Nc2cccc(C)n2)C(c2ccc3c(c2)OCO3)C2=C(CC(c3ccco3)CC2=O)N1 (stereo not drawn)	-1%	u	18µM*	-5
14	Cc1onc(-c2ccccc2)c1C(=O)N(Cc1ccccc1)C(C)C	-4%	-1.2%	-1%	x
15	O=C(c1ccco1)N(Cc1cc2ccccc2[nH]c1=O)C1CCCCC1	-4%	0.7%	-12%	-2

Single values from the entries so far.
O=C(NCc1ccco1)c1noc2c1CCCCC2 @ GLA inh pH 4.5: 0
CC(C)(C)c1ccc(Oc2ccc(N)cn2)cc1 @ Rango dissoc inh: 19%
CN(C)/C=C/C(=O)c1ccc(Cl)cc1Cl @ Rango dissoc inh: 2%

Other compounds
cpd	structure	miR-21 reporter	Rango-impB inh	Rango dissoc inh	GLA inh pH 4.5
16	CC(OC(=O)c1ccc(Cl)c(S(N)(=O)=O)c1)C(=O)NCc1ccc2c(c1)OCO2 (stereo not drawn)	x	0.7%	8%	x
17	CCOCCOC(=O)C1=C(C)Nc2ccc(C)cc2S1	-17%	0.4%	-20%	4
18	COC(=O)[C@]1(C)N[C@H](CN(C)S(=O)(=O)c2ccc(-c3ccccc3)cc2)[C@@H]2C(=O)N(C)C(=O)[C@@H]21	x	0.0%	2%	x
19	CCN(CC)S(=O)(=O)c1ccc(N2CCOCC2)c(NC(=O)Cc2ccc(Cl)cc2)c1	-6%	0.3%	-17%	-3
20	Cc1ccc(CNC(=O)C2CC(c3cc(C(F)(F)F)cc(C(F)(F)F)c3)=NO2)o1 (stereo not drawn)	u	1.0%	6%	-11
21	COc1ccccc1NC(=S)NN1CCN(C)CC1	-5%	-3.7%	9%	1
22	CCc1ccccc1NC(=O)CC(c1ccc(OC)cc1)n1cccc1 (stereo not drawn)	0%	-0.6%	14%	-2
23	Cc1nc(CSc2ccc(Cl)cc2)cc(N2CC(C)OC(C)C2)n1 (stereo not drawn)	4%	-0.5%	0%	-2
24	CCC(Sc1nc2ncnc(N)c2[nH]1)C(=O)O (stereo not drawn)	-1%	0.3%	1%	-2
25	O=C(NC1CCSc2ccccc21)c1ccc(F)c(S(=O)(=O)N2CCOCC2)c1 (stereo not drawn)	1%	3.9%	0%	x
26	Cc1cc(C)cc(NC(=O)c2cc(S(=O)(=O)N3CCCC3)cn2C)c1	-4%	-2.3%	1%	x
27	CN(C(=O)C1CCCN(c2ncnc3c2nc2n3CCCCC2)C1)c1cccc(Cl)c1 (stereo not drawn)	19%	-0.8%	0%	x
28	CCC(c1nnnn1C1CCCCC1)N(Cc1ccco1)Cc1cc2ccc(OC)cc2[nH]c1=O (stereo not drawn)	-6%	-5.6%	7%	-4
29	OCC1(CCOc2ccccc2)CCN(Cc2cn[nH]c2-c2ccc(F)cc2)CC1	1%	0.2%	-4%	-15
30	CC(C)CC(NC(=O)CCl)c1ccccc1 (stereo not drawn)	14%	-4.9%	-6%	-3

cpd	structure	miR-21 reporter	Rango-impB inh	Rango dissoc inh	GLA inh pH 4.5
31	COc1cccc(-c2cccc(NC(=O)C3CCN(C4CCC4)CC3)c2)c1	2%	0.0%	-2%	x
32	OCC[C@H]1C[C@H](O)[C@@H](O)[C@@]2(CCc3ccccc3O2)O1	x	-4.3%	u	x
33	N#CCSc1nc2c(c(C3CC=CCC3)c1C#N)CCC2 (stereo not drawn)	-30%	-3.9%	-8%	-18
34	Cc1cccc(C)c1NC(=O)CN1C(=O)NC(C)(CCc2ccccc2)C1=O (stereo not drawn)	-1%	5.7%	8%	6
35	Cc1cc(NC(=O)NCc2ccccc2)c(=O)n(Cc2ccccc2F)c1	-18%	4.2%	12%	x
36	Cc1ccc(-c2csc(NC(=O)Cc3ccc(F)cc3)n2)o1	-11%	-1.3%	-12%	4
37	CC(Sc1nnnn1C)C(=O)Nc1cc(S(=O)(=O)N2CCCCC2)ccc1Cl (stereo not drawn)	x	-12%	-11%	x
38	CCOC(=O)N1CCN(C(=O)c2cn(C)c3ccc(S(=O)(=O)N4CCCC4)cc3c2=O)CC1	-6%	-1.5%	1%	-1
39	COC(=O)c1c(CCl)noc1C(=O)NCC1CCCO1 (stereo not drawn)	8%	-0.4%	1%	2
40	Cc1occc1-c1nnc(SCC(=O)NC2CCC(C)CC2)o1 (stereo not drawn)	x	-2.4%	-19%	x
41	COc1cnc(-c2cccc(C(F)(F)F)c2)[nH]c1=O	-1%	-1.2%	0%	0
42	CCC(=O)NS(=O)(=O)c1cccnc1Nc1ccccc1Cl	-2%	-0.9%	-4%	8
43	CCC(=O)N1CCc2cc(S(=O)(=O)CCC(=O)NCc3ccco3)ccc21	0%	1.1%	1%	2
44	Cc1ccc(SCC(=O)OCC(=O)N(C)CC(=O)Nc2ccccc2Cl)cc1C	0%	3.2%	2%	x
45	COc1ccc(NC(=O)C2(N(CC(C)C)C(=O)Cn3nnnc3N)CCCCC2)cc1	-2%	-3.9%	34%	-1

cpd	structure	miR-21 reporter	Rango-impB inh	Rango dissoc inh	GLA inh pH 4.5
46	Cc1nn(-c2ccccc2)c(C)c1C(=O)NNC(=O)C(F)(F)F	-2%	0.5%	0%	-6
47	CCc1nn(C(CC)C(=O)NCCCN2CC(C)CC(C)C2)c(=O)c2cc3oc(C)cc3n12 (stereo not drawn)	0%	-4.0%	-4%	x
48	O=C(NC1CCCC1)C(=O)N(Cc1cccnc1)C(C(=O)NCC1CCCO1)c1ccco1 (stereo not drawn)	0%	1.4%	5%	-11
49	Cc1nn(CC(=O)c2ccc3c(c2)OCCO3)c(=O)c(C#N)c1C	x	-7.5%	-2%	x
50	CC(C)OCc1c(C(=O)OC/C(O)=C(\C#N)c2nc3ccccc3[nH]2)oc2ccccc12	-2%	0.9%	-7%	1
51	CC(=O)c1cccc(Nc2ccc(-c3ccccc3F)nn2)c1	-48%	0.8%	4%	11
52	CCOC(=O)CCCOC(=O)c1ccc(S(=O)(=O)N(C)C)cc1	-3%	-0.2%	24%	-1
53	Cc1cc(C)c(O)c(-c2cc(C(=O)NCc3ccccc3)[nH]n2)c1	1%	-0.8%	0%	1
54	CC(/C=C/c1ccccc1)=N\NC(=O)c1ccc2c(c1)OCCO2	-43%	-0.3%	-3%	4
55	CCO[C@@H]1OC(C(=O)NCc2nc3ccccc3[nH]2)=C[C@H](C(C)(C)C)[C@H]1CCCO	x	4.9%	7%	x
56	CCC(=NCCc1c(C)[nH]c2ccc(C)cc12)C1=C(O)CC(c2ccccc2)CC1=O (stereo not drawn)	18%	2.0%	-6%	0
57	O=C1NC(c2ccc(-c3ccccc3[N+](=O)[O-])o2)C(C(=O)c2ccccc2)C(O)(C(F)(F)F)N1 (stereo not drawn)	-3%	-1.6%	15%	1
58	O=c1[nH]c(Sc2ccc([N+](=O)[O-])cc2[N+](=O)[O-])nc2ccccc12	x	4.2%	9%	x
59	NC(=O)c1ccsc1NC(=O)CSc1nnc2ccccn12	-17%	-2.2%	-5%	u
60	O=C(CCOc1ccccc1)Nc1ccnn1C1CCN(C(=O)CCC(F)(F)F)CC1	-7%	-3.7%	-26%	x

Compounds above that contain an aryl methoxy group (6):
cpd	structure	miR-21 reporter	Rango-impB inh	Rango dissoc inh	GLA inh pH 4.5
21	COc1ccccc1NC(=S)NN1CCN(C)CC1	-5%	-3.7%	9%	1
22	CCc1ccccc1NC(=O)CC(c1ccc(OC)cc1)n1cccc1 (stereo not drawn)	0%	-0.6%	14%	-2
28	CCC(c1nnnn1C1CCCCC1)N(Cc1ccco1)Cc1cc2ccc(OC)cc2[nH]c1=O (stereo not drawn)	-6%	-5.6%	7%	-4
31	COc1cccc(-c2cccc(NC(=O)C3CCN(C4CCC4)CC3)c2)c1	2%	0.0%	-2%	x
41	COc1cnc(-c2cccc(C(F)(F)F)c2)[nH]c1=O	-1%	-1.2%	0%	0
45	COc1ccc(NC(=O)C2(N(CC(C)C)C(=O)Cn3nnnc3N)CCCCC2)cc1	-2%	-3.9%	34%	-1

(list continues)
cpd	structure	miR-21 reporter	Rango-impB inh	Rango dissoc inh	GLA inh pH 4.5
61	Cc1ccc(-c2nnn(CC(=O)NC3CCCc4ccccc43)n2)cc1 (stereo not drawn)	-1%	-2.6%	5%	-15
62	Cc1ccc(-c2nc3ccccc3[nH]2)cc1NC(=O)/C=C/c1ccco1	-6%	0.3%	-11%	-2
63	O=C(Nc1ccc2c(c1)OCO2)C1CCCN(S(=O)(=O)c2cccs2)C1 (stereo not drawn)	6%	-0.1%	30%	3
64	COC(=O)c1ccccc1NS(=O)(=O)c1ccc2c3c(cccc13)C(=O)N2	-13%	u	u	-15
65	CCN(CC)c1ccc(N)cc1S(=O)(=O)Nc1ccccc1OC	2%	4.3%	-10%	0
66	CCCCc1cc(=O)oc2cc(C)cc(OCC(=O)N[C@@H](CSCc3ccccc3)C(=O)O)c12	0%	0.1%	6%	x
67	Cc1cc(NCc2ccccn2)n2ncc(-c3ccccc3)c2n1	-3%	-3.2%	-13%	-4
68	CCN1C(=O)CS/C1=C(\C#N)S(=O)(=O)c1ccccc1	0%	-4.6%	-7%	9
69	CC(NC(=O)c1ccc(Br)s1)c1ccncc1 (stereo not drawn)	-2%	2.3%	12%	4
70	COC(=O)c1ccc(NC(=O)CSc2nnc(C)n2-c2ccccc2)cc1	-1%	-5.9%	-22%	5
71	Cc1cc(Cl)ccc1OCc1cn2cccnc2n1	-51%	0.0%	0%	-5
72	CCCc1cc(=O)[nH]c(SCC(=O)N2CCN(S(=O)(=O)c3ccc(C)cc3C)CC2)n1	-7%	1.5%	2%	-5
73	COc1cc(-n2c(C)nc3cccnc32)c(Cl)cc1C(=O)O	-11%	u	u	x
74	CCOC(=O)c1ccc(-n2cncn2)nc1	-5%	3.8%	7%	-6
75	CCOc1ccc(NC(=O)COC(=O)Cc2ccsc2)cc1	x	-4.8%	-16%	x

cpd	structure	miR-21 reporter	Rango-impB inh	Rango dissoc inh	GLA inh pH 4.5
76	CSc1ccccc1NC(=O)CN(C)C(C)C(=O)Nc1ccc(C#N)cc1 (stereo not drawn)	1%	-0.8%	-11%	3
77	Cc1sc2nc(CSCC(=O)Nc3ccccc3C#N)[nH]c(=O)c2c1C	0%	u	-14%	9
78	CC#CCN1c2ccccc2[C@]23C[C@@H](C(=O)OC)N(C(=O)NC4CCCCC4)C2=NC(C(=O)OC)=C(C(=O)OC)[C@H]13	x	-5.0%	30%	x
79	CC1=CC(C)(C)N(C(=O)CSc2nnc(-c3ccc(C)cc3)o2)c2ccc(C)cc21	0%	9.1%	4%	-6
80	CCn1c2ccccc2c2cc(NC(=O)CSc3nnc(-c4cccc(OC)c4)n3N)ccc21	15%	1.2%	-1%	-2
81	Nc1cc2c3c(cccc3c1)C(=O)N(CCN1CCCC1)C2=O	u	u	u	-8
